Assay outcomes from PubChem.
MT1-MMP act inh: inhibitors of human MT1-MMP activation; 0.061% of 360,000 active; HT1080 RFP-PRO-GFP cells, GFP/RFP ratio fluorescence, overnight; percent of plate control window, DMSO zero; GFP/RFP ratio change, % at 20 µM; P50281;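 active = GFP/RFP ratio change of at least 30% with cell ATP level not reduced by more than half and red fluorescence within 50% of control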; also: strong numbers were not always called active
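Assay system: RFP-PRO-GFP reporter HT1080 cells; read-out basis: GFP/RFP fluorescence ratio; benchmarks: DMSO wells and RFP-L50D-GFP cells; doses: 20 µM single dose, 1% DMSO; schedule: overnight cell settling, then overnight compound exposure, 37 °C, 5% CO2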
Rce1 inhib: inhibitors of yeast Ras-converting enzyme; yeast membranes, quenched prenylated peptide cleavage fluorescence; calls only; AID 2563; 0.27% of 290,000 active; Q03530;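 active = fall in fluorescence gain of 50% or more versus controls, with final raw signal at or below 3038400; inconclusive = same 50% fall but final raw signal above 3038400; inactive = fall in fluorescence gain under 50%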;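 also: plate controls were neutral control wells for no effect and wells lacking membranes for full effect; tested at 10 µM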
Target sequence (Q03530 whole entry, looked up): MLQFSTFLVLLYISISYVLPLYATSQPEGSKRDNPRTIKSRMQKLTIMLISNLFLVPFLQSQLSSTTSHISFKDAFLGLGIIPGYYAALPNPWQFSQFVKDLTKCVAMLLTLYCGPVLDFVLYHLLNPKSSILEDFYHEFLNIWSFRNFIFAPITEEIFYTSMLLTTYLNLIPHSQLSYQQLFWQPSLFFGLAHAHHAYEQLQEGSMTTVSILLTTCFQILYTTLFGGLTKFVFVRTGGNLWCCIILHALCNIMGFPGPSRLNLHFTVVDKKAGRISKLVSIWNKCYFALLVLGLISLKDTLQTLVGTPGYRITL
PABP polyA inh: PABP-poly(A) binding inhibition. PABP-poly(A) RNA binding, fluorescence polarization. inhibition, % at 35 µM. 1% of 290,000 active. AID 2014;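 active = 50% or more with normal probe brightness, or confirmed in later tests; inconclusive = above 50% with abnormal brightness, or retests that disagree; inactive = below 50% or failed in later tests; about a fifth of its hits are not listed in these tables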;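 also: calls also rest on retests at 20 µM and on dose response follow-up; controls were probe without protein and protein plus probe with vehicle; some compounds called inactive have numbers as strong as hits; many hits fall short of the cut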
Yeast UUG start: alters start codon recognition fidelity in yeast; S. cerevisiae UUG-firefly luciferase reporter, luminescence/redox ratio; activity score, % at 18.7 µM; 0.13% of 350,000 active;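 active = replicate mean at a twofold rise or more, about +100% in these data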;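 also: firefly luciferase made from a UUG start codon reports start codon fidelity; reporter light over untreated wells divided by growth signal over untreated wells; some hits fall short of that in this replicate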
CSC inhib: blocks cancer stem cells; inhibition, % at 7.5 µM; 1.1% of 300,000 active; AID 2717; cancer stem cell-like cells viability, luminescence;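 active = mean at 75% or more and at least half the replicates too; inconclusive = mean and replicates disagree; tested in HMLE shEcad cells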;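 also: 0% = median of negative and 100% = median of positive control wells; the first replicate is given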
eIF4H FP inh: inhibitors of RNA binding by human eIF4H; AID 2012; inhibition, % at 35 µM; 0.94% of 290,000 active; eIF4H fluorescence polarization binding assay; Q15056;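 active = 50% or more with normal probe brightness, or confirmed in later tests; inconclusive = above 50% with abnormal brightness, or retests that disagree; inactive = below 50% or failed in later tests; about a fifth of its hits are not listed in these tables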;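 also: calls also rest on retests at 20 µM and on dose response follow-up; 0% = protein and probe with vehicle and 100% = probe without protein; strong numbers were not always called active; many hits fall short of the cut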
Env fusion inh: HIV envelope-mediated fusion inhibition; inhibition, % at 12.3 µM; AID 651610; HeLa-JRFL Env/CEM21 cell fusion, luciferase; 1.1% of 360,000 active;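 active = mean replicate inhibition score of at least 50 and every replicate individually at or above 50; inconclusive = only one of the two criteria met; inactive = mean below 50 and not all replicates reaching 50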;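 also: 0% = plate neutral controls and 100% = maraviroc near 300 nM; one replicate is shown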
eIF4H FP inh retest: second read-out of eIF4H FP inh, no call of its own (marks repeat the call); inhibition, %; compound at 20 µM; confirmation average;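 mean of two retest wells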
PABP polyA inh retest: also measured in PABP polyA inh; calls as there; inhibition, %; compound at 20 µM; confirmation repeats;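 mean of two retest wells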
MT1-MMP act inh RFP: recorded beside MT1-MMP act inh, whose call it bears; RFP signal change, %; measured here: RFP expression control read;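 0 = vehicle wells; hits needed this value within 50% of zero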
* marks the source's active call; other numbers are inactive results; i = inactive; ? = inconclusive; . = not tested or not shown; & = joins results of further samples; [ ] = another dose, or the depositor's remark. An excerpt; the hit share may differ from the screen's.

SMILES	MT1-MMP act inh	MT1-MMP act inh RFP	Rce1 inhib	PABP polyA inh	Yeast UUG start	CSC inhib	eIF4H FP inh	Env fusion inh	others
COc1cc2nc(C3CCC3)n(NC(=O)C3CCC3)c(=O)c2cc1OC	-1	5	i	-4	.	-14	-4	-72
CCCCn1c(N)c(N(Cc2ccccc2OC)C(=O)COc2ccc(C)cc2)c(=O)[nH]c1=O	0	5	i	.	-1	-9	.	0
CCn1c(C)nc2cc(C(=O)N=Nc3c(O)[nH]c4ccccc34)ccc21	.	.	i	-4	.	9	-11	.
COCc1cccc(NC(=O)Cc2cccc3ccccc23)c1	3	2	i	-11	-8	16	-3	5
CCOC(=O)CNC(=S)N(Cc1cccs1)C1CCCC1	0	1	i	-16	.	.	-4	15
Cc1cc(C)c(C#N)c(Oc2ccc(O)cc2)n1	-1	-2	i	-6	-24	-5	-10	-3
CCc1nc(SCC(=O)c2cccc([N+](=O)[O-])c2)n[nH]1	2	5	i	-6	.	-2	0	7
CC1=CC(C)(C)N(C(=O)CSc2nnc(-c3ccccc3)o2)c2ccc(C)cc21	-13	-3	i	-2	.	.	2	.
COc1cc(/C=N/NC(=O)Cc2ccccc2)cc(OC)c1OC	7	-1	i	-4	-8	-28	0	-4
COc1cc(NC(=O)c2c(-c3ccccc3Cl)noc2C)c2ncccc2c1	0	-7	.	.	-19	46	.	25
COc1ccc(/C=C2/SC(=O)N(CCCCCC(=O)Nc3ccccc3C(=O)O)C2=S)cc1	5	6	i	3	-21	55	12	19
CCCOc1ccc(C(=O)Nc2c[nH]c(=O)[nH]c2=O)cc1	1	6	i	5	-14	2	-17	-30
CCOc1ccc(CCNC(=O)C2CCN(S(=O)(=O)N3CCCCC3)CC2)cc1OCC	0	0	i	7	.	-6	-4	.
Cc1ccc(C)n1-c1ccc(C(=O)NN=C2CCCC2)cc1	5	8	i	45	-1	-9	-4	-7
COc1cc(NC(=O)Cc2ccccc2OC)cc(OC)c1	3	3	i	3	-4	5	2	-36
CCN(CC(=O)Nc1ccc2c(c1)OCCO2)C(=O)C1CC(=O)N(c2ccc(OC)cc2OC)C1 (centres undefined)	-1	-5	i	.	14	13	.	-3
Cc1ccc(Cn2cnc3c(cnn3C(C)(C)C)c2=O)cc1	-2	-16	i	-4	.	-2	-2	8
O=C(CN1c2cccc3cccc(c23)S1(=O)=O)NCCc1ccc(F)cc1	-2	-1	.	.	-12	-1	.	-3
O=C(NCc1ccc2c(c1)OCO2)C1CCN(c2nccc(C(F)(F)F)n2)CC1	1	-1	i	5	-7	-14	3	12
CC(=O)Oc1cccc2c1C(=O)c1c(OC(C)=O)cc(C(=O)O)cc1C2=O	1	-1	i	-4	-14	21	?	-9
Cc1ccc2nc(-c3ccc(NS(C)(=O)=O)cc3)cc(-c3ccccc3)c2c1	0	-2	i	5	-6	56	7	.
Cc1ccc(-c2csc(N3CCN(c4cc5c(cc4Cl)nc(C)n5CCN4CCCCC4)CC3)n2)cc1	1	6	i	-9	35	-17	-8	-20
CCOc1cc(NC(=S)NCC(C)C)c(OCC)cc1NC(=O)c1cccs1	4	3	i	2	-14	.	-6	-11
O=[N+]([O-])c1ccc(N2CCN(S(=O)(=O)c3ccccc3[N+](=O)[O-])CC2)cc1NCc1cccnc1	-3	-7	i	2	.	41	-6	13
CSc1ncc(C(=O)Nc2ccc(C(C)=O)cc2)c(C)n1	-5	-3	i	-8	-3	3	9	-38
Cc1cnn(-c2cc(N/N=C/c3ccccc3F)ncn2)c1	1	8	i	-6	.	-7	-1	.
CCOC(=O)C(NC(C)=O)(Nc1ccc(S(=O)(=O)Nc2onc(C)c2C)cc1)C(F)(F)F (centres undefined)	-6	-6	i	-1	-2	-14	-10	-23
O=C(O)c1ccc(NC(=O)C2(c3ccccc3)CCCC2)cc1	1	3	i	10	-6	-11	-7	35
CCN(CC)S(=O)(=O)c1ccc(NC(=O)c2ccc(OCC3CCCO3)cc2)cc1 (centres undefined)	22	-29	.	.	11	1	.	.
COCCSc1ccccc1C(=O)Nc1nccs1	-5	1	i	7	-6	.	-3	.
CCCC[C@@H]1C=C(C(=O)O)[C@H](c2ccc(CC)cc2)N1S(=O)(=O)c1ccc(C)cc1	4	2	.	.	-3	.	.	5
O=C(CN1CC(c2ccccc2)CC1=O)N/N=C/c1cc(Br)ccc1O (centres undefined)	-4	-8	i	-16	.	39	-3	24
COc1ccc(C)cc1NC(=O)NC1CCN(Cc2ccccc2)CC1	-1	0	i	-2	-13	-2	-1	13
Cc1ccsc1C1C=C(c2cccc(Br)c2)Nc2ncnn21 (centres undefined)	-133	2	i	50	-38	16	99	.	eIF4H FP inh retest=24;PABP polyA inh retest=34
CCC(CC)C(=O)c1c[nH]c(C(=O)NCCCn2ccnc2)c1	0	4	i	-2	11	42	-2	-4
CCN(CC)C(=O)[C@H]1C[C@H](CC(=O)NCc2ccco2)C(=O)N2CCc3c([nH]c4cc(CCC(=O)N(C)C)ccc34)[C@]12C	1	9	.	.	13	.	.	-27
COc1ccccc1NS(=O)(=O)c1ccc(C)c(C(=O)NCC2(N(C)C)CCCCC2)c1	3	3	.	.	2	-7	.	-20
Cc1cc(C(=O)Cn2nc(C(=O)O)c3ccccc3c2=O)c(C)n1CC(F)(F)F	2	-1	i	-8	-16	-8	2	0
CN1CCc2cc3c(c4c2[C@H]1[C@H](O)c1ccccc1-4)OCO3	18	14	i	8	-18	15	109	-170	eIF4H FP inh retest=21;PABP polyA inh retest=29
COc1ccc(-c2noc(CN(C(=O)C(C)(C)C)C(C)C)n2)cc1	1	0	i	0	.	11	7	.
COc1ccc(-c2cc(C(=O)N3CCN(c4ccccc4OC)CC3)no2)cc1OC	0	-3	i	6	.	2	-14	19
CC1C(=O)C(C)C(c2ccc(Cl)cc2)NC1c1ccc(Cl)cc1 (centres undefined)	1	-5	i	.	-9	55	.	23
N#C/C(=C\Nc1ccccc1SC(F)(F)F)c1nc(-c2ccc(F)cc2)cs1	0	3	.	11	.	-6	-3	-15
N#Cc1ccc(C(=O)Nc2nnc(-c3cccs3)o2)cc1	1	3	i	7	-15	22	16	23
COCC(C)n1c(C)cc(C(=O)COC(=O)c2oc3ccccc3c2C)c1C (centres undefined)	1	-8	i	-5	-20	8	-4	.
CC(C)[C@H](NC(=O)CCn1nnc2ccccc2c1=O)C(=O)O	-1	1	i	-1	-27	2	1	-19
CCOC(=O)Cc1sc(N)nc1C	1	2	i	-1	-18	.	2	-6
C[C@@H]1CN([C@H](C)CO)C(=O)c2cc(NC(=O)Nc3cccc4ccccc34)ccc2O[C@H]1CN(C)Cc1ccc(C(F)(F)F)cc1	2	-12	.	.	23&5	.	.	13[16.7 µM]
CCCc1c(C(=O)N/N=C(\C)CCc2ccccc2)nnn1-c1nonc1N	.	.	i	-2	-20	0	-11	0
COc1ccccc1C1(CC(=O)N2CCCCC2)CCOC(C(C)C)C1 (centres undefined)	1	1	i	-1	6&1	7	3	21

18 neighbouring entries out of the list so far, for reference:
SMILES	MT1-MMP act inh	MT1-MMP act inh RFP	Rce1 inhib	PABP polyA inh	Yeast UUG start	CSC inhib	eIF4H FP inh	Env fusion inh	others
COc1ccc(C)cc1NC(=O)NC1CCN(Cc2ccccc2)CC1	-1	0	i	-2	-13	-2	-1	13
Cc1ccsc1C1C=C(c2cccc(Br)c2)Nc2ncnn21 (centres undefined)	-133	2	i	50	-38	16	99	.	eIF4H FP inh retest=24;PABP polyA inh retest=34
CCC(CC)C(=O)c1c[nH]c(C(=O)NCCCn2ccnc2)c1	0	4	i	-2	11	42	-2	-4
CCN(CC)C(=O)[C@H]1C[C@H](CC(=O)NCc2ccco2)C(=O)N2CCc3c([nH]c4cc(CCC(=O)N(C)C)ccc34)[C@]12C	1	9	.	.	13	.	.	-27
COc1ccccc1NS(=O)(=O)c1ccc(C)c(C(=O)NCC2(N(C)C)CCCCC2)c1	3	3	.	.	2	-7	.	-20
Cc1cc(C(=O)Cn2nc(C(=O)O)c3ccccc3c2=O)c(C)n1CC(F)(F)F	2	-1	i	-8	-16	-8	2	0
CN1CCc2cc3c(c4c2[C@H]1[C@H](O)c1ccccc1-4)OCO3	18	14	i	8	-18	15	109	-170	eIF4H FP inh retest=21;PABP polyA inh retest=29
COc1ccc(-c2noc(CN(C(=O)C(C)(C)C)C(C)C)n2)cc1	1	0	i	0	.	11	7	.
COc1ccc(-c2cc(C(=O)N3CCN(c4ccccc4OC)CC3)no2)cc1OC	0	-3	i	6	.	2	-14	19
CC1C(=O)C(C)C(c2ccc(Cl)cc2)NC1c1ccc(Cl)cc1 (centres undefined)	1	-5	i	.	-9	55	.	23
N#C/C(=C\Nc1ccccc1SC(F)(F)F)c1nc(-c2ccc(F)cc2)cs1	0	3	.	11	.	-6	-3	-15
N#Cc1ccc(C(=O)Nc2nnc(-c3cccs3)o2)cc1	1	3	i	7	-15	22	16	23
COCC(C)n1c(C)cc(C(=O)COC(=O)c2oc3ccccc3c2C)c1C (centres undefined)	1	-8	i	-5	-20	8	-4	.
CC(C)[C@H](NC(=O)CCn1nnc2ccccc2c1=O)C(=O)O	-1	1	i	-1	-27	2	1	-19
CCOC(=O)Cc1sc(N)nc1C	1	2	i	-1	-18	.	2	-6
C[C@@H]1CN([C@H](C)CO)C(=O)c2cc(NC(=O)Nc3cccc4ccccc34)ccc2O[C@H]1CN(C)Cc1ccc(C(F)(F)F)cc1	2	-12	.	.	23&5	.	.	13[16.7 µM]
CCCc1c(C(=O)N/N=C(\C)CCc2ccccc2)nnn1-c1nonc1N	.	.	i	-2	-20	0	-11	0
COc1ccccc1C1(CC(=O)N2CCCCC2)CCOC(C(C)C)C1 (centres undefined)	1	1	i	-1	6&1	7	3	21

Carrying on:
SMILES	MT1-MMP act inh	MT1-MMP act inh RFP	Rce1 inhib	PABP polyA inh	Yeast UUG start	CSC inhib	eIF4H FP inh	Env fusion inh	others
Cc1ccc(N2CC(C(N)=O)CC2=O)cc1 (centres undefined)	-2	2	i	-3	0	-10	-13	-16
CN1CCN(S(=O)(=O)c2cccc(S(=O)(=O)c3ccc(Cl)c(Cl)c3)c2)CC1	-5	-9	i	?	-1	-7	3	.
O=C(Nc1ccccc1)/C(=C/c1ccccc1)c1ccccc1	-1	-12	i	-15	-15	16	6	.
O[C@@H]([C@H](O)[C@H](O)CBr)[C@H](O)CBr	-2	-1	i	.	-18	-2	.	14
CCCN1CCN(CCNC(=O)Nc2cc(C)ccc2C)CC1	4	6	i	6	-40	0	-6	-5

An excerpt from above in order of SMILES length, low to high.
SMILES	MT1-MMP act inh	MT1-MMP act inh RFP	Rce1 inhib	PABP polyA inh	Yeast UUG start	CSC inhib	eIF4H FP inh	Env fusion inh	others
Cc1ccc(Cn2cnc3c(cnn3C(C)(C)C)c2=O)cc1	-2	-16	i	-4	.	-2	-2	8
CC1C(=O)C(C)C(c2ccc(Cl)cc2)NC1c1ccc(Cl)cc1 (centres undefined)	1	-5	i	.	-9	55	.	23
COc1cc2nc(C3CCC3)n(NC(=O)C3CCC3)c(=O)c2cc1OC	-1	5	i	-4	.	-14	-4	-72
